Screens from PubChem BioAssay.
GALR2 agonist: activates the human galanin receptor 2; O43603; GALR2-expressing cells, agonist activation read-out; activation, %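 (tested at 5 µM)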; actives 0.48% (n = 140,000);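 active = above mean plus 3 SD of all compounds, about 5% in these data, not always enough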;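 note: 0% = vehicle buffer wells and 100% = reference agonist at full effect; tested in CHO reporter cells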
RGS16-Gao: RGS16-Galphao interaction regulator (human). actives 0.38% (n = 220,000). binding response (% of control), % at 10 µM. AID 1441. bead-based flow cytometry RGS16-Galphao binding, fluorescence; actives lie on both sides;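 active = below 25% or above 175%, edge rows of some plates excepted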;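 note: Galphao activated by GDP with aluminum fluoride before binding; 100% = wells without compound and 0% = beads without RGS; some results beyond the cut were filed as inactive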
HSV augment: HSV replication enhancement | HSV replication augmentation in cells, fold increase | maximum fold increase | actives 0.005% (n = 220,000) | AID 1956;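 active = peak rise of 1.5-fold or more in the series; tested in PC3 cells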;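 note: first round at 10 µM; read as green reporter fluorescence; hits show the peak of a series up to 25 µM; 1 = signal of infected wells without compound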
PKD1 inh: blocks activity of human protein kinase D1; Q15139; PKD1 kinase fluorescence polarization assay; inhibition, %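 (about 10 µM by stock and volumes)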; actives 0.056% (n = 200,000);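 active = inhibition of 50% or more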;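 note: controls were vehicle for no effect and a reference inhibitor for full effect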
Target sequence (Q15139 whole entry, looked up): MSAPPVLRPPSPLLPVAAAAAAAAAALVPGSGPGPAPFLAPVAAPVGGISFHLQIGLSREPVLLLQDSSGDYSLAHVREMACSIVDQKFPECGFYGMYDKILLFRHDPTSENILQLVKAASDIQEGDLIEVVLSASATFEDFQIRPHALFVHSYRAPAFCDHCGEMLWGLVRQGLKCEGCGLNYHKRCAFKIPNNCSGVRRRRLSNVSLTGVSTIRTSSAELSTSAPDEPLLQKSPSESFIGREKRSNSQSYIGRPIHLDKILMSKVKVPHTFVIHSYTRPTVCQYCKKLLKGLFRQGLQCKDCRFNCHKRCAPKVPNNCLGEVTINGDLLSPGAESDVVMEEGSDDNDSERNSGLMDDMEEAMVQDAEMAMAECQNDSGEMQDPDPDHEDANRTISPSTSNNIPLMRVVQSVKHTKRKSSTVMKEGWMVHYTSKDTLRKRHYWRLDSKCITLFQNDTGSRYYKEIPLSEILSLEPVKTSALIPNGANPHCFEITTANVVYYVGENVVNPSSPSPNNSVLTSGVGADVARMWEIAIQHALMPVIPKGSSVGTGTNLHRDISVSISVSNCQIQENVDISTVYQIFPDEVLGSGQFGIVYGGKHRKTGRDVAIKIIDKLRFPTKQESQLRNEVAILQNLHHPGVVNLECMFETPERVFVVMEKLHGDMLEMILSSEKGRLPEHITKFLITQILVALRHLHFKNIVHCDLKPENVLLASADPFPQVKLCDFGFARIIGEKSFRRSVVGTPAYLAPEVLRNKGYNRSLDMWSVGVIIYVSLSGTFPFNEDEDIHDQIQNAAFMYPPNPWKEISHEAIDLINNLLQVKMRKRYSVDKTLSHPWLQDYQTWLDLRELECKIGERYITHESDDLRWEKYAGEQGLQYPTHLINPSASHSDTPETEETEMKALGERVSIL
Insulin prom inh: TRM-6 insulin promoter activity inhibition. TRM-6 cells (human fetal islet line), insulin promoter-eGFP reporter, imaging; reporter expression induced with tamoxifen. inhibition, % at 2 µM. actives 0.9% (n = 130,000). AID 1273;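 active = inhibition above the mean plus 3 SD, with well images judged a real hit on visual review, cut at about 60% in these data, passing the limit was not always enough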
Insulin prom inh cell count: second read-out of Insulin prom inh, no call of its own (marks repeat the call); normalized cell count, %; measured here: cell count, toxicity; reference of the scale not given here;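 cells exposed to compound for 48 h; stained nuclei by imaging scaled within each plate; lower means fewer cells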
HSV augment primary fold: recorded beside HSV augment, whose call it bears; fold increase; compound at 10 µM; measured here: primary screen fold increase 10 uM; tested in PC3 cells;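 GFP signal in the first replicate; 1 = infected wells without compound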
The depositor's hits bear a star; i = inactive; nt = no result given.

SMILES	GALR2 agonist	RGS16-Gao	HSV augment	HSV augment primary fold	PKD1 inh	Insulin prom inh	Insulin prom inh cell count
Cc1nnc(N(C(=O)c2cnccn2)c2ccccc2)s1	-2.9	105.2	i	0.91	7.3	42.9	58.6
COC(=O)CC[C@@H](C(=O)O)N1C(=O)c2ccccc2C1=O	-1.1	102.5	i	0.79	-4.0	nt	nt
CC(=O)Nc1ccc(NC(=O)COC(=O)Cc2cccs2)cc1	-0.7	99.3	i	0.83	0.4	0.0	189.0
CCOC(=O)c1c(NC(=O)COc2cccc3c2CCN(Cc2ccc(F)cc2)C3=O)sc2c1CCC2	-0.7	99.6	i	0.89	-2.8	nt	nt
COC(=O)Cn1cc(C(=O)C(F)(F)F)c2ccccc21	nt	101.9	i	1.08	1.5	nt	nt
Cc1ccc(-c2onc3ccc(Cl)cc23)cc1	-0.9	105.2	i	0.98	-6.7	35.7	126.7
O=C(C1=C[C@@H](c2coc3ccccc3c2=O)C[C@@H](OCCCCO)O1)N1CCN(Cc2ccccc2)CC1	nt	89.8	i	0.85	0.0	nt	nt
CC(C)(C)NC(=O)CN(C(=O)CN1C(=O)C(=O)c2ccccc21)C(C)(C)C	nt	98.2	i	0.94	-11.1	nt	nt
COC(=O)c1ccc(NC(=O)CN(Cc2ccc(Cl)cc2)S(C)(=O)=O)cc1	-2.2	99.1	i	0.95	-3.6	28.6	107.6
O=C(O)CC(CC(=O)Nc1ccc2ccccc2n1)c1ccccc1 (stereo unspecified)	nt	100.2	i	0.96	nt	nt	nt
COc1ccc(C(=S)N2CCN(C)CC2)cc1	-1.4	97.8	i	1.07	4.8	16.1	97.6
C/C(=N\Nc1nc(C)cc(C)n1)c1ccc(N2CCOCC2)cc1	nt	101.0	i	1.01	-0.9	16.7	147.5
O=C(NC(=S)Nc1ccccn1)c1ccco1	-0.7	101.7	i	0.92	15.0	-9.1	80.5
CC(C)(C)CC(C)(C)NC(=O)/C=C/C(=O)O	nt	101.6	i	0.84	nt	nt	nt
N#Cc1c(-c2ccc(Cl)cc2)nc2n(c1=O)CCCS2	-1.9	103.8	i	1.08	-0.9	-17.1	110.5
CC(C)CNC(=O)Cn1c(=O)c2c(ncn2CC(C)C)n(Cc2ccccc2)c1=O	nt	104.0	i	0.95	0.4	nt	nt
O=C(CSc1nc2ccccc2c(=O)n1-c1ccccc1)NCc1ccc2c(c1)OCO2	-0.9	98.8	i	1.06	1.0	nt	nt
COc1ccc(OC)c(NC2=NC3(CCCCC3)N=C(N)N2)c1	-0.5	102.3	i	0.88	-8.8	-5.6	79.4
COc1cc(OC)c(OC)cc1CN1CCN(S(=O)(=O)c2ccc(F)cc2)CC1	-3.1	103.2	i	0.94	-4.1	-57.1	114.8
O=C(NC1CCCCC1)C(c1ccc2ncccc2c1)N(Cc1ccccc1)C(=O)c1ccc2c(c1)OCCO2 (stereo unspecified)	-2.4	98.8	i	1	-8.6	-42.3	90.9
Clc1ccccc1-c1nn2c(COc3ccccc3)nnc2s1	-1.9	94.0	i	1.01	-3.5	22.2	127.2
O=C(CN1CCCc2ccccc21)Nc1ccccc1[N+](=O)[O-]	nt	101.0	i	1.01	9.9	23.1	167.4
CN(c1ccc(OCC(=O)Nc2nc(-c3ccccc3)cs2)cc1)S(=O)(=O)c1ccc(F)cc1	-1.7	89.3	i	0.95	-7.8	-31.6	62.9
COc1ccc(N2CCN(C(c3cccs3)C(C)NC(=O)c3ccc4c(c3)OCO4)CC2)cc1 (stereo unspecified)	nt	107.8	i	1	1.2	41.5	46.3
O=C(/C(C=Nc1ccc(F)cc1)=C(/O)c1ccco1)C(F)(F)F	-1.9	26.5	i	1.05	-2.5	41.9	82.1
Cc1ccc(S(=O)(=O)N(C)C)cc1NS(=O)(=O)c1ccc(Cl)s1	-2.5	77.9	i	1.02	-17.0	41.0	109.9
CCN1CCN(c2ncnc3c2nnn3Cc2ccccc2)CC1	-1.6	162.7	i	0.987	-2.3	-63.6	105.6
Cc1cc(=O)oc2cc(OCc3ccc(C(=O)OCC(=O)NC4CCS(=O)(=O)C4)cc3)ccc12 (stereo unspecified)	nt	100.2	i	1.01	nt	nt	nt
Cc1ccc(C2=NNC(=O)C(P(=O)(c3ccccc3)c3ccccc3)C2)cc1 (stereo unspecified)	nt	103.3	i	0.98	-3.8	6.7	109.6
CCc1cccc(N=c2c([N+](=O)[O-])nn(-c3ccc4c(c3)OCCO4)n2O)c1	nt	121.9	i	0.81	-7.4	-33.3	54.1
CCSc1ncc(/C=N/Nc2ccc([N+](=O)[O-])cc2)n1C	-2.5	93.0	i	0.86	-3.5	-17.6	124.9
O=C(Cc1ccc(Cl)cc1)Nc1ccc(S(=O)(=O)Nc2cnc3ccccc3n2)cc1	nt	102.5	i	1.03	-3.5	nt	nt
Cc1ccc(NC(=O)C2COc3ccccc3O2)nc1 (stereo unspecified)	-0.7	98.2	i	1.13	6.1	7.1	171.9
CC(OCc1ccccc1)C(NC(=O)OC(C)(C)C)C(=O)NCC1CCCO1 (stereo unspecified)	-1.1	67.0	i	0.74	4.1	nt	nt
CSc1nnc(-c2ccc(NC(N)=S)cc2)o1	nt	96.3	i	1.26	nt	nt	nt
COc1cc(C(=O)NCc2nnc(SCC(=O)NCc3ccccc3)o2)cc(OC)c1OC	0.1	95.2	i	0.91	-2.1	48.3	109.3
O=C(CN(c1ccccc1)S(=O)(=O)c1ccccc1)N/N=C/c1ccc(OC2CSC2)cc1	-0.6	99.7	i	0.92	5.2	nt	nt
COc1ccc(CC(=O)NNC(=S)Nc2ccc(Br)cc2)cc1	-1.7	1.6	i	0.87	-9.2	-192.9	85.1
COc1ccc(/C=N\N=C2/SC(CC(=O)O)C(=O)N2c2ccc(O)cc2)cc1 (stereo unspecified)	-0.9	98.6	i	0.84	-7.5	-6.5	98.6
CSc1cc(-c2ccccc2)n(C)c(=O)c1C#N	nt	113.6	i	0.97	5.1	18.2	84.0

Two of these compounds in another layout:
CC(OCc1ccccc1)C(NC(=O)OC(C)(C)C)C(=O)NCC1CCCO1 (stereo unspecified)
  GALR2 agonist = -1.1 | RGS16-Gao = 67.0 | HSV augment = i | HSV augment primary fold = 0.74 | PKD1 inh = 4.1 | Insulin prom inh = nt | Insulin prom inh cell count = nt
CSc1nnc(-c2ccc(NC(N)=S)cc2)o1
  GALR2 agonist = nt | RGS16-Gao = 96.3 | HSV augment = i | HSV augment primary fold = 1.26 | PKD1 inh = nt | Insulin prom inh = nt | Insulin prom inh cell count = nt

Compounds above that have a halogen, in the order listed:
SMILES	GALR2 agonist	RGS16-Gao	HSV augment	HSV augment primary fold	PKD1 inh	Insulin prom inh	Insulin prom inh cell count
CCOC(=O)c1c(NC(=O)COc2cccc3c2CCN(Cc2ccc(F)cc2)C3=O)sc2c1CCC2	-0.7	99.6	i	0.89	-2.8	nt	nt
COC(=O)Cn1cc(C(=O)C(F)(F)F)c2ccccc21	nt	101.9	i	1.08	1.5	nt	nt
Cc1ccc(-c2onc3ccc(Cl)cc23)cc1	-0.9	105.2	i	0.98	-6.7	35.7	126.7
COC(=O)c1ccc(NC(=O)CN(Cc2ccc(Cl)cc2)S(C)(=O)=O)cc1	-2.2	99.1	i	0.95	-3.6	28.6	107.6
N#Cc1c(-c2ccc(Cl)cc2)nc2n(c1=O)CCCS2	-1.9	103.8	i	1.08	-0.9	-17.1	110.5
COc1cc(OC)c(OC)cc1CN1CCN(S(=O)(=O)c2ccc(F)cc2)CC1	-3.1	103.2	i	0.94	-4.1	-57.1	114.8
Clc1ccccc1-c1nn2c(COc3ccccc3)nnc2s1	-1.9	94.0	i	1.01	-3.5	22.2	127.2
CN(c1ccc(OCC(=O)Nc2nc(-c3ccccc3)cs2)cc1)S(=O)(=O)c1ccc(F)cc1	-1.7	89.3	i	0.95	-7.8	-31.6	62.9
O=C(/C(C=Nc1ccc(F)cc1)=C(/O)c1ccco1)C(F)(F)F	-1.9	26.5	i	1.05	-2.5	41.9	82.1
Cc1ccc(S(=O)(=O)N(C)C)cc1NS(=O)(=O)c1ccc(Cl)s1	-2.5	77.9	i	1.02	-17.0	41.0	109.9
O=C(Cc1ccc(Cl)cc1)Nc1ccc(S(=O)(=O)Nc2cnc3ccccc3n2)cc1	nt	102.5	i	1.03	-3.5	nt	nt
COc1ccc(CC(=O)NNC(=S)Nc2ccc(Br)cc2)cc1	-1.7	1.6	i	0.87	-9.2	-192.9	85.1
